S aureus helic – S. aureus DNA helicase inhibition; purified S. aureus helicase, fluorescence unwinding assay; about half of the hits fall short of the stated cut; inhibition, %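 (tested at about 80 µM)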; 0.05% of 120,000 active; AID 485395;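 active = both duplicates at 50% or more, or one of them with a favoured structure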;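 note: 0% = mean of negative control wells and 100% = mean of positive control wells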
MgrA-DNA mod – alters Staphylococcus aureus MgrA binding to DNA | 0.13% of 84,000 active | inhibition, %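 (about 10 µg/mL by stock and volumes)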 | fluorescence polarization | AID 602314;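 active = above 50% in either of two replicates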;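 note: 0% = protein plus DNA without compound and 100% = DNA alone without protein; higher means less MgrA bound to DNA so lower polarization; one replicate is shown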
* hit, by the source's call; x = no result given; & = joins results of further samples.

SMILES | S aureus helic | MgrA-DNA mod
CN(C)C1(CNC(=O)C2=NN(C3CCS(=O)(=O)C3)C(=O)CC2)CCCCC1 (stereo unspecified) | -1 | x
COC(=O)c1ccncc1C(=O)Nc1ccc(C)cc1 | x | -3.4
CC(=O)NC(=C(C)C)c1ccccc1 | x | 3.6
O=[N+]([O-])c1cc(C(F)(F)F)ccc1N1CCN(c2ccc(C(F)(F)F)cc2[N+](=O)[O-])CC1 | x | 3.7
CCN(CC)C(=O)CSc1c2c(nc3ccc(Cl)cc13)CCCC2 | 7 | -2.1
CC(C)OC(=O)Cn1c(=O)oc2ccccc21 | 12 | -2.3
O=S(=O)(c1ccc(O)cc1)N1CCOCC1 | -9 | x
CCC(CO)NCC(O)CN1c2ccccc2Sc2ccccc21 (stereo unspecified) | 0&12 | x
CCN(C(=O)CCn1c(=O)oc2ccccc21)c1ccccc1C | 11 | x
CC(=O)Nc1ccccc1C(=O)c1n[nH]nc1-c1ccc(Cl)cc1 | -15 | 0.6
COC(=O)c1ccc(OCC2c3cc(OC)c(OC)cc3CCN2C(=O)c2ccccc2)cc1 (stereo unspecified) | 7 | -1.2
CCOc1cc(/C=C2/C(=O)N(c3ccc(Cl)c(Cl)c3)N=C2C)ccc1OC(C)=O | x | -2.6
CCC1CCC(C(=O)NC(C(=O)Nc2ccc(OC)cc2)C(C)C)CC1 (stereo unspecified) | 8 | x
Cc1ccccc1Nc1cc(C)c(C#N)c2nc3ccccc3n12 | 10 | -2.2
S=c1nn[nH]n1CC1CCCO1 (stereo unspecified) | 13 | x
N#C/C(=C\Nc1ccc2c(c1)OCCO2)S(=O)(=O)c1ccc(C(F)(F)F)cn1 | x | 0.4
Cn1cc(Cl)c(-c2noc(-c3ccccc3C(F)(F)F)n2)n1 | x | -4.0
NNC(=O)c1oc2nc(-c3ccccc3)cc(-c3ccccc3)c2c1N | x | -0.8
COCCNC(=O)C1Sc2nnc(C)n2NC1c1ccc(OC)c(Cl)c1 (stereo unspecified) | -31 | x
O=C(CNc1ccccc1OC(F)F)N1CCc2ccccc21 | 9 | x
Cc1cc(C(=O)NCc2csc(-c3cccs3)n2)nn1C | -33 | x
CC(C)(/C=N/Nc1nc2ccccc2o1)CO | -19 | x
CC(C)(C)/C(O)=C/c1nc2ccccc2oc1=O | 7 | 1.4
O=c1cc(CN2CCN(c3ccccc3)CC2)occ1OC/C=C/c1ccccc1 | 6 | x
NC(N)=NC(N)=Nc1ccc(I)cc1 | x | -1.6
Cc1c(/C(Cc2ccccc2)=N/O)c2ccccc2n1C | -30 | x
CC1(C)CC(N2CCN(C3CC(C)(C)NC(C)(C)C3)CC2)CC(C)(C)N1 | -22 | x
O=C(Cn1ncc2c(=O)oc3ccccc3c21)NCC1(c2ccccc2)CCCC1 | 1 | x
COc1cc2c(cc1NS(C)(=O)=O)c1c(n2S(C)(=O)=O)CCC1 | -2 | -1.9
CC(C)n1c(CCNC(=O)c2ccccc2)nc2ccccc21 | -12 | x
CC1=N/C(=C2/C=C(c3cccs3)Oc3ccccc32)C(=O)O1 | 21 | x
Cc1cc(C)c2oc3nc(N)c(C#N)cc3c(=O)c2c1 | 17 | x

The last two entries of the part before lead into the next:
SMILES | S aureus helic | MgrA-DNA mod
CC1=N/C(=C2/C=C(c3cccs3)Oc3ccccc32)C(=O)O1 | 21 | x
Cc1cc(C)c2oc3nc(N)c(C#N)cc3c(=O)c2c1 | 17 | x
CN(c1ccc(C(=O)O)cc1)S(C)(=O)=O | -4 | x
COCC(=O)Nc1nc(-c2ccccc2)cs1 | 0 | 3.6
CC1CCCCN1C(=O)COC(=O)c1n[nH]c2ccccc12 (stereo unspecified) | -14 | x
COc1ccc2nc(-n3c(C)ccc3C)sc2c1 | 4 | -0.1
COc1cc(CN(C)C)c(O)c(CN(C)C)c1 | 9 | 0.4
N#CC1(NC(=O)COC(=O)C2CCN(C(=O)Nc3ccccc3)CC2)CCCCC1 | -9 | x
NC(=O)C1CCN(C(=O)CSCc2cnn(-c3ccccc3)c2-n2cccc2)CC1 | 0 | -3.5
O=C(O)Cn1cnc2scc(-c3cccs3)c2c1=O | -7 | x
C=CCn1c(=S)[nH]c2cc(C(=O)O)ccc2c1=O | 7 | x
O=C(CCN1N=C(c2ccccc2)CCC1=O)NCc1ccccc1 | -18 | 0.7
O=C(CSCc1cnn(-c2ccccc2)c1-n1cccc1)NCCC1=CCCCC1 | 33 | x
O=C1CN(C(=S)NCCN2CCOCC2)c2ccccc2N1 | 12 | x
Cc1c(C)n(CC(O)CNC(C)c2ccccc2)c2ccccc12 (stereo unspecified) | 11 | x
O=C(c1cccs1)n1nccc1-c1cccs1 | x | 1.0
Cc1oc2c(c1C(=O)N1CCCCC1)C(=O)c1ccccc1C2=O | -4 | x
O=C(Nc1ccccc1C(=O)O)c1cccs1 | -7 | x
COC(=O)CSCc1nc(N)nc(Nc2ccccc2C)n1 | 12 | x
CCn1c(SCC(=O)c2ccc(C)cc2)nnc1C1CC1 | -5 | 0.3
Cn1nc(C(F)(F)F)c(-c2cccc(C(F)(F)F)c2)c1NC(=O)c1nccnc1C(=O)O | x | 1.1
COc1ccc(NC(=O)c2ccc3ncsc3c2)cc1 | x | 0.3
CCN(C(=O)/C=C/c1ccco1)c1nc2c(C)cccc2s1 | 14 | x
CSc1nc(-c2ccc(C(F)(F)F)cc2)nc(N)c1C#N | x | -3.9
COc1ccc(NC(=O)CCSc2nc(C)cs2)cc1 | -7 | 0.0
Cc1ccc(C)c(NC(=O)C(NC(C)C)c2ccccc2)c1 (stereo unspecified) | -4 | x
Cc1oc(-c2cccc(F)c2)nc1CSCC(=O)O | 12 | x
Cc1ccc2nc3sc(C#N)c(N)c3cc2c1 | 11 | 1.6
O=C1Nc2ccccc2/C1=N\n1cnc2ccccc21 | -15 | x
COc1ccc(OC)c(/C=C/C(=O)N(C)CCOc2ccccc2)c1 | -2 | x
CNc1nc(-c2ccc(OC)cc2)c(C)s1 | -2 | -0.9
COc1ccc(NC(=O)COc2nc(N(C)C)nc(N(C)C)n2)cc1 | 8 | -0.2
C=CCOn1c(=O)c(-c2ccc(C)cc2)[n+]([O-])c2ccccc21 | 3 | 22
COC(=O)c1ccc(C2NC(=O)NC3=C2C(=O)CC(C)(C)C3)cc1 (stereo unspecified) | -3 | x
O=C(CN1CSCC1=O)Nc1ccc2nc(N3CCOCC3)sc2c1 | 15 | x
C#C[C@]1(O)CCC2C3CCc4cc(O)ccc4C3CC[C@@]21C (stereo partly specified) | x | -2.5
COc1cccc(S(=O)(=O)NCc2ccc(C(=O)N3CCCC3)cc2)c1 | 6 | -1.4
COc1ccc2c(CNCc3ccccc3)c(C(=O)O)[nH]c2c1 | -29 | x
C=Cn1cc[n+](CC(=O)c2ccc(C)cc2)c1 | 13 | 2.4
CCOc1ccc2nc(NC(=O)c3ccc(NS(=O)(=O)c4cccs4)cc3)sc2c1 | 6 | x
C=CCSc1nnc2n1CCCN2 | x | -0.1
O=S(=O)(Nc1ccccc1N1CCCCC1)c1ccccc1 | -16 | x
Cn1c(=O)c2c(nc3n2CC=NN3)n(C)c1=O | 11 | x
Fc1cc2nsnc2cc1Cl | x | -1.1
Cn1c(SCC(O)c2ccccc2)nnc1-c1ccc2ccccc2c1 (stereo unspecified) | x | 0.9
OC(CNC1CCCCC1)COc1ccc(-c2ccccc2)cc1 (stereo unspecified) | -10 | x
COc1ccccc1N(C(=O)NCc1ccccc1)C1=NCC(C)S1 (stereo unspecified) | 5 | 2.9
CCOc1cc(/C(O)=C(\C#N)c2nc3ccccc3[nH]2)cc(OCC)c1OCC | 1 | 4.6
CC1CN(S(=O)(=O)c2cccc(C(=O)O)c2)CC(C)O1 (stereo unspecified) | 14 | -6.2
Cc1nn(-c2ccc(F)cc2)c2sc(C(=O)NO)cc12 | -8 | x
Cc1ccc2c(C#N)cc(C)cc2c1 | 5 | x
Cn1[nH]c(=S)sc1=NCc1ccccc1 | 13 | 1.8
CCCNC(=O)Cn1nc(CC)n2c(cc3ccccc32)c1=O | -15 | x
COC(=O)c1c[nH]n2c(=O)c3c(nc12)C(=O)N(Cc1ccccc1)C3 | 4 | x
Cc1ccc(S(=O)(=O)N2CC3CCCC2C3)cc1 (stereo unspecified) | x | 0.0
O=C(O)C1C2C=CC(C2)C1C(=O)Nc1nc2ccc(Br)cc2s1 (stereo unspecified) | -1 | 1.2
Cc1ccc(S(=O)(=O)C2CS(=O)(=O)CC2S(=O)(=O)c2ccc(C)cc2)cc1 (stereo unspecified) | 20 | -0.8
COc1ccc(-c2nc3ccc4ccccc4c3c3c2CCCC3)cc1 | -2 | 0.3

Other records follow.
SMILES | S aureus helic | MgrA-DNA mod
CCOc1cc(C=C2C(=O)NC(=O)NC2=O)ccc1OCCOc1ccccc1OC | x | 3.4
O=C(O)c1cn(C2CC2)c2cc(N3CCNCC3)c(F)cc2c1=O | x | -0.2&-3.7
Cc1nn(-c2ccccc2)c(Cl)c1/C=N/O | -13 | 0.6
NC(=O)C1CCCN(C(=O)C(c2ccccc2)c2ccccc2)C1 (stereo unspecified) | 12 | x
CCN1C(=O)S/C(=C/c2cccs2)C1=O | 5 | 0.8
COc1nc(OC)nc(N2CCC(C(=O)NCC3CCCCC3)CC2)n1 | -4 | 0.8
O=C1CC(N2CCCCC2CCO)C(=O)N1c1ccccc1 (stereo unspecified) | -8 | 3.3
O=C(c1ccc2nonc2c1)N1CCN(C(c2ccccc2)c2ccccc2)CC1 | x | -0.2
COC(=O)C1=C(C)NC(C)=C([N+](=O)[O-])C1c1ccccc1C(F)(F)F (stereo unspecified) | x | -0.6
Cc1sc2nc(CC(=O)N3CCCC3)[nH]c(=O)c2c1C | -12 | x
CCCN1CN=C(Nc2nc(-c3ccccc3)c3cc(Cl)ccc3n2)NC1 | -23 | x
COc1ccc2c(=O)c(-c3csc(C)n3)coc2c1C | -5 | x
CCc1ccnc(NC(=O)CCCC(=O)O)c1 | x | -2.5
CCOC(=O)c1c(NC(=O)c2ccc(Cl)cc2)sc(C(=O)Nc2cc(C(F)(F)F)ccc2Cl)c1C | x | -0.5
Cn1c(-c2ccccc2)c(C(=O)COC(=O)c2ccc(S(=O)(=O)NCc3ccco3)cc2)c2ccccc21 | -11 | x
CC(=O)N(C)c1cccc2ccccc12 | 9 | x
CCC(=O)N1CCc2cc(Br)cc(S(=O)(=O)N(C)c3ccc(OC)cc3OC)c21 | 5 | x
Cc1noc(C(=O)N2C(C)CCCC2C)c1Cl (stereo unspecified) | 3 | x
CCN(Cc1ccccc1)C(=O)CSC1=Nc2ccccc2C2=NC(c3ccccc3)C(=O)N12 (stereo unspecified) | 14 | 0.0
NC(=O)C1CCN(CCS(=O)(=O)c2ccc(Cl)cc2)CC1 | x | -1.6
CCN1CC=C2C(C1)C(c1ccc(Cl)s1)C(C#N)=C(N)C2(C#N)C#N (stereo unspecified) | -25 | 42*
O=C(CN1C(=O)CCc2ccccc21)NC1CCCc2ccccc21 (stereo unspecified) | 0 | 0.0
Cn1nc(C(=O)Nc2ccccc2)c2c1-c1ccsc1CC2 | 6 | x
CS(=O)(=O)N(CC(=O)NCc1ccco1)Cc1ccc(Cl)c(Cl)c1 | 20 | 2.9

4 entries from above, reformatted.
CCC(=O)N1CCc2cc(Br)cc(S(=O)(=O)N(C)c3ccc(OC)cc3OC)c21
- S aureus helic = 5
- MgrA-DNA mod = x
Cc1noc(C(=O)N2C(C)CCCC2C)c1Cl (stereo unspecified)
- S aureus helic = 3
- MgrA-DNA mod = x
CCN(Cc1ccccc1)C(=O)CSC1=Nc2ccccc2C2=NC(c3ccccc3)C(=O)N12 (stereo unspecified)
- S aureus helic = 14
- MgrA-DNA mod = 0.0
NC(=O)C1CCN(CCS(=O)(=O)c2ccc(Cl)cc2)CC1
- S aureus helic = x
- MgrA-DNA mod = -1.6

Other records:
SMILES | S aureus helic | MgrA-DNA mod
COc1cccc(-c2nc3ccccc3c(=O)o2)c1 | -25 | x
CC(C)(C)c1nnc(NS(=O)(=O)c2ccc(F)cc2)s1 | 13 | 2.0
O=C1C(c2c(O)[nH]c3ccccc23)=Nc2ccccc21 | x | -0.1
CC1C2C(C)N(C)C(=O)N(C)C2N(C)C(=O)N1C (stereo unspecified) | 32 | x
CC(CN(C)Cc1ccccc1)OC(=O)c1cc2ccccc2o1 (stereo unspecified) | 5 | -1.4
O=C(O)c1csc2c1CCCC2 | 12 | -3.0
COc1nc(OCCNS(=O)(=O)c2ccc(C)cc2)nc(N(C)C)n1 | 24 | x
CCOC(=O)C1=C(c2ccccc2)NC(SCC(=O)Nc2ccc(F)cc2)=C(C#N)C1c1ccco1 (stereo unspecified) | 17 | x

Full records from above.
`O=C(O)c1csc2c1CCCC2` as listed: S aureus helic = 12; MgrA-DNA mod = -3.0
`O=C1C(c2c(O)[nH]c3ccccc23)=Nc2ccccc21` as listed: S aureus helic = x; MgrA-DNA mod = -0.1

The list continues:
SMILES | S aureus helic | MgrA-DNA mod
CC(C)/C=N/N1C(N)=C(C#N)C(C#N)(C#N)C1C(C)C (stereo unspecified) | 9 | -1.8
CC1=NN(c2cccc(C(=O)O)c2)C(=O)/C1=C\c1ccc(-c2ccc(Cl)c(C(=O)O)c2)o1 | x | 8.0
CC(C)(C)C(=O)/C(C#N)=C/c1ccc(-c2ccc(F)cc2)o1 | -48 | x
CSc1nsc(SC)c1NC(=O)OCC1CCCO1 (stereo unspecified) | -3 | 1.7
CCOC(=O)Nc1ccc2c(c1)N(C(=O)N(C)C)c1ccccc1CC2 | -28 | x
O=C(Nc1cc(C(F)(F)F)cc(C(F)(F)F)c1)C12CC3CC(CC(C3)C1)C2 | x | -3.4
CC(=O)N1CCOc2cc(S(=O)(=O)NCC3CCC(C(=O)Nc4cccc(C)c4)CC3)ccc21 (stereo unspecified) | 12 | -3.0

These rows are one share of the data; rates above refer to the full screens.
